gsp agonist = gsp mutant agonism; Potency, µM (highest dose often 76.9 µM), for inactives: top-dose activation (cAMP increase), most hits filed as activators; 340,000 tested, 0.13% active; gsp mutant cells, cAMP HTRF, 30 min; control for the full effect not named in the record; active = well fitted activation curve with a large enough effect; inconclusive = small, poorly fitted or top-dose-only effect, or another doubt; inactive = no such curve, though single readings can be large or run the other way; cell line not stated here;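 further: phosphodiesterase inhibitor Ro 20-1724 added with compounds to block cAMP breakdown; potency means the concentration at half of the fitted maximal effect; nearly all actives have a fitted effect of over 60% in size; about a fifth of the inactives were tested at one dose only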
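Cells in DMEM/10% FBS with G418 were pretreated with compounds in DMSO plus […] (300 uM stock) for 30 min at 37C. cAMP was measured by HTRF (cAMP-d2 plus anti-cAMP antibody-K) after 30 min at room temperature.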
ClpP mod = qHTS Assay for Activators of ClpP; purified B. subtilis ClpP, FRET peptide cleavage, 20 min; Potency, µM (titrated, usually from 57.5 µM), inactives show top-dose activity change, negative = active; AID 651965, 2013; 340,000 tested, 1.9% active; ATP-dependent Clp protease proteolytic subunit (Bacillus subtilis (strain 168)), P80244; active = well fitted falling curve with a large enough effect; inconclusive = small, poorly fitted or top-dose-only effect; inactive = no such curve, though single readings can be large or run the other way; further: potency means the concentration at half of the fitted maximal effect; the source files actives as falling curves though it sought activators and does not explain the sign; nearly all actives have a fitted effect of over 65% in size; many hits overshoot -100%
Target sequence (P80244 whole entry, looked up): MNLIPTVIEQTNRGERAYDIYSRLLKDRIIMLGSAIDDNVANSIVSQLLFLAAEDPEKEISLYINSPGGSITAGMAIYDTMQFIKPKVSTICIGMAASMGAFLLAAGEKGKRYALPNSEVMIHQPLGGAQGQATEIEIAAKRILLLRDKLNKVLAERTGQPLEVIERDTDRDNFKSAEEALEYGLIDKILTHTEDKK
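ClpP 10 microg/mL final, pH 8 Tris/KCl buffer with BSA, glycerol, Tween-20; compound pinned in; FRET-FV substrate; RT 20 min; Ex320/Em430; ΔFRET vs ADEP 5.8 microM, DMSO, no enzyme.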
Sfp PPTase inh = Sfp phosphopantetheinyl transferase inhibition; Biochemical Sfp PPTase activity, qHTS; 310,000 tested, 3.5% active; Potency, µM, for inactives: max response, negative = inhibition, usual class: inhibitors; AID 1490; Q9F4F7; active means well fitted inhibition curve with a large enough effect; inconclusive means small, poorly fitted or top-dose-only effect, or another doubt; inactive means no such curve, though single readings can be large or run the other way;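 further: the enzyme is Sfp with the accession as filed and its product quenches rhodamine fluorescence; potency means the concentration at half of the fitted maximal effect; 0% = enzyme reaction without inhibitor and -100% = no enzyme wells; top concentration of the series not given in the record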
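Fluorescence-quenching assay: 15 nM Sfp-PPTase preincubated 15 min at room temperature with compound, then 5 uM rhodamine-CoA and 12.5 uM BHQ-2-labelled YbbR peptide added. Fluorescence (ex 525/em 598 nm) read at start and after 30 min; difference gives rate.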
D2 agonist = human D2 receptor agonism in beta-arrestin assay; P14416; DiscoveRx PathHunter D2 beta-arrestin, luminescence, 90 min; 100% = 57 uM dopamine signal; activation, % (concentration not given with the values); 360,000 tested, 0.084% active; AID 624465; in the data active = activation above about 40%; inconclusive = about 15% to 40%; inactive = below about 15%; further: compound concentration not given in the record; the text of the record calls up to 30% inactive
Target sequence (P14416 whole entry, looked up): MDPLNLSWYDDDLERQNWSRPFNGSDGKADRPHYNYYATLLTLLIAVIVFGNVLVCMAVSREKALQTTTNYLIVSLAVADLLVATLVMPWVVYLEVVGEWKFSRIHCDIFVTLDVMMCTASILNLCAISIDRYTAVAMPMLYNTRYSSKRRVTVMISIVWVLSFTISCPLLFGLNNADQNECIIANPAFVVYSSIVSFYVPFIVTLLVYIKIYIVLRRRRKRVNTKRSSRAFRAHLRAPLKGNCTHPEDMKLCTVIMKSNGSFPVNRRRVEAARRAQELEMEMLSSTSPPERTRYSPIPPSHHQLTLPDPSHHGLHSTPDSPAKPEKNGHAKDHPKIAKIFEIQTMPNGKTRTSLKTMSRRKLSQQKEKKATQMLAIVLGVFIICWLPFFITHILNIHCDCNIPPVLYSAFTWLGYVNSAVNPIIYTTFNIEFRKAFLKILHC
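Agonist mode: compounds alone added to overnight-plated D2 PathHunter cells for 90 min at 37 C, with 57 uM final dopamine (EC100) defining full response. Beta-arrestin recruitment detected by chemiluminescent reagent, read after 1 h at ambient temperature.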
gsp antag = gsp mutant antagonism | gsp-mutant cells, cAMP HTRF, 30 min; control for the full effect not named in the record | Potency, µM (top dose mostly 76.9 µM), for the others: top-dose activity change, negative = inhibition, actives largely listed as inhibitors | 340,000 tested, 0.4% active | AID 624288; active = falling curve of any shape with a large fitted effect; inconclusive = falling curve, mostly with a smaller effect; inactive = flat or rising curve; cell line not stated here;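 further: intracellular cAMP measured with PDE inhibitor Ro 20-1724 present during compound exposure; potency means the concentration at half of the fitted maximal effect; on the % scale 0 is the no-effect control and ±100 the full control effect; nearly all actives have a fitted effect of over 65% in size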
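Measurement of cellular cAMP by homogeneous time-resolved fluorescence following a 30 min compound exposure at 37C. The PDE inhibitor […] was present throughout; the assay buffer was DPBS with 0.05% BSA and 0.005% Tween 20.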
Menin MLL FP FL = menin-MLL binding inhibition, fluorescein peptide | 290,000 tested, under 10 active | FP activity change, % at 61.4 µM | Fluorescence polarization, fluorescein-MLL peptide displacement from menin; inconclusive = falling polarisation curve, or a change in total fluorescence; inactive = total fluorescence flat and polarisation flat or rising; no compound was filed as active; the % refers to the polarisation; negative = inhibition;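 further: % of control where 0% means no effect; inhibitors lower the polarisation; unlabelled MLL peptide was the positive control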
PINK1 expr mod = PINK1 expression modulation; PINK1 immunofluorescence, high-content cytometry, 24 h; Potency, µM (series often up to 76.6 µM), without a hit: at the top dose activation (PINK1 increase), actives largely listed as activators; 410,000 tested, 0.2% active; active = well fitted activation curve with a large enough effect; inconclusive = small, poorly fitted or top-dose-only effect; inactive = flat fitted curve, though single readings scatter; cell line not stated here;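 further: potency means the concentration at half of the fitted maximal effect; % of control where 0% means no effect; nearly all actives have a fitted effect of over 65% in size; a mitochondrial uncoupler was the plate control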
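Decision-based qHTS: stable cells, 24 h exposure to five compound concentrations, CCCP as control. Fixed cells stained for PINK1 plus nuclear, mitochondrial and cell markers, cytometer read.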
* = called active by the depositor; ? = inconclusive; . = not tested or not shown; [ ] = dose if it differs, or a comment.

Values in the order – gsp agonist | ClpP mod | Sfp PPTase inh | D2 agonist | gsp antag | Menin MLL FP FL | PINK1 expr mod
> COc1ccc(S(=O)(=O)N(CC(=O)NCC2CCCO2)c2ccccc2)cc1OC (configuration not stated)
 : 10% | 1.9% | 16% | -2.5 | 19% | 3.0 | -1.5%
> Cc1cc2c(N=NC(=O)CCc3ccccc3)c(O)[nH]c2cc1Br
 : 14%[15.4 µM] | -2.7% | 2% | -6.6 | 7% | 8.9 | 0.0%
> Cc1cc(C2C(C#N)=C(N)SC(N)=C2C#N)c(C)s1
 : 24%[15.4 µM] | -2.9% | ? | 1.4 | 10% | ? | ?
> O=C(NCCCN=C1NS(=O)(=O)c2ccccc21)c1ccncc1
 : 12% | -2.1% | 10% | -1.3 | 14% | 1.6 | 15%[38.3 µM]
> CCOc1ccc(NC(=O)[C@@H](NC(=O)c2ccco2)C(C)C)cc1
 : -1% | 0.9% | -1% | -4.3 | 6% | -5.3 | -1.0%
> COc1cc(C(=O)COC(=O)c2ccncc2)cc(OC)c1OC
 : -30% | . | . | -5.9 | 2% | . | -0.7%
> COc1ccc(-c2nnc(NC(=O)c3ccc(S(=O)(=O)N4COCC4(C)C)cc3)o2)cc1
 : 10% | 0.5% | 28% | 0.4 | -35% | -1.0 | -1.7%
> CCCC(CCC)C(=O)Nc1ccc2c(c1)N(C(=O)CN1CCN(C)CC1)c1ccccc1CC2
 : -5%[15.4 µM] | . | 5% | 4.7 | . | -1.0 | 3.2%
> CS(=O)(=O)Nc1ccc(C(=O)NCCSc2ccc(Cl)cc2)cc1
 : 5% | -1.5% | 11% | -2.1 | -13% | -0.9 | 1.4%
> CCc1ccc(OCC(=O)O/N=C(\N)Cc2ccc([N+](=O)[O-])cc2)cc1
 : -37%[inhibitor] | 0.2% | 0% | 0.8 | -3% | 3.4 | 0.9%
> CC(=O)c1cc(C#N)c(SCC(=O)O)nc1C
 : 10% | 0.0% | 1% | -6.2 | 7% | 2.6 | -1.2%
> CCc1nnc(NS(=O)(=O)c2ccc(NC(=S)NC(=O)c3ccc(F)cc3)cc2)s1
 : 9% | -0.7% | 4% | -5.3 | -19% | 3.2 | -0.5%
> CCCCOc1ccc(-c2nnc(-c3ccncc3)o2)cc1
 : 19% | 16µM* | -5% | -0.4 | ? | -2.9 | 0.4%
> CCCn1c(SCC(=O)Nc2nc(-c3ccc(OC)cc3)cs2)nc2c1c(=O)n(C)c(=O)n2C
 : ? | -2.5% | 10% | 7.6 | -13% | 6.0 | 10.0%
> CC(C)c1onc(C(=O)N(C)Cc2ccccc2)c1[N+](=O)[O-]
 : 4%[15.4 µM] | -0.3% | 9% | -1.3 | 14% | 1.4 | 0.1%
> Cc1nn(C(=O)c2cccs2)c(C)c1CN1C(=O)c2ccccc2C1=O
 : 17% | -1.2% | 20% | 2.4 | 6% | -1.6 | 25%[38.3 µM]
> S=C(NCc1ccccc1)NCc1ccc(CNC(=S)NCc2ccccc2)cc1
 : 5% | ? | 9% | 3.0 | -7% | 0.2 | 4.1%
> COc1ccccc1-c1c(C)c(C)nc(N)c1C#N
 : 34% | 22µM* | 17% | -2.1 | -2% | -2.9 | -0.5%
> O=C(CNC(=O)c1cccs1)N/N=C/c1c[nH]c2ccccc12
 : -29% | 1.1% | 7% | 3.6 | 3% | 5.8 | -1.3%
> COc1ccc(Br)cc1Cn1nnc(C(=O)Nc2ccc3c(c2)OCCO3)c1N
 : ? | -1.9% | 3% | -2.0 | 1% | . | 4.6%
> CC(=O)Oc1c2occc2cc2ccc(=O)oc12
 : 15% | -18% | ? | -0.2 | -5% | -0.7 | -0.4%
> O=S(=O)(c1ccccc1)N1CCN(Cc2nnc(-c3ccccc3)o2)CC1
 : -6% | 1.4% | . | -3.1 | . | . | -0.8%
> C=CCSC1=NN2CCS(=O)(=O)N=C2S1
 : 42% | . | 16% | -2.4 | 8% | -4.7 | 0.8%
> COCCN(CC(=O)Nc1cccc(C)c1C)C(=O)Cc1cccs1
 : 20% | 0.5% | . | -1.7 | 5% | . | 1.4%
> Cc1oc(-c2ccccc2F)nc1CS(=O)(=O)CC(=O)NCCCN1CCN(C)CC1
 : 2% | -5.1% | 10% | -1.5 | 6% | 0.7 | -0.3%
> C=CCO/N=C(/C)c1c(O)c(CC)c(-c2ccccc2)n(-c2ccccc2)c1=O
 : -3% | -1.3% | -1% | -2.2 | -31% | -1.5 | 1.2%
> CCNC(=O)C1(C)CCN(C(=O)c2cccnc2SC)C1 (configuration not stated)
 : . | 1.0% | . | 1.1 | . | . | -0.5%
> CNC(=O)CN(c1ccc(Oc2ccccc2)cc1)S(=O)(=O)c1ccc(C)cc1
 : -1% | 0.7% | 24% | -3.3 | -16% | . | 4.0%
> Cc1[nH]nc(Nc2ccccc2)c1[N+](=O)[O-]
 : -39%[inhibitor] | -0.1% | 1% | -6.2 | -9% | 3.8 | -1.8%
> CCC(C(=O)NC1CCCC1)N(C(=O)c1snc(C(N)=O)c1N)c1ccc(C)cc1C (configuration not stated)
 : -2%[15.4 µM] | 0.2% | -22% | -21 | -3% | -1.0 | 1.9%
> CC1(c2ccccc2)NC(=S)N2C1NC(=S)N2c1ccccc1 (configuration not stated)
 : -4%[15.4 µM] | -1.7% | -15% | -5.0 | 7% | 24 | -0.8%
> CCOC(=O)c1cc(NC(=O)COc2ccc([N+](=O)[O-])cc2)cc(C(=O)OCC)c1
 : -3% | 1.5% | -2% | 3.1 | 7% | 4.4 | 24%
> COC(=O)CSc1nc2sc(C)c(C)c2c(=O)n1C
 : 10% | -2.5% | 11% | -0.7 | 11% | 15 | 6.3%
> CC(C)[C@H](NC(=O)N1c2ccccc2NC(=O)[C@@H]1C(C)C)C(=O)N[C@H](C(=O)O)c1ccccc1
 : . | -0.1% | 21% | -4.3 | 5% | -2.5 | -0.3%
> COc1ccc(CNc2ncnc3cc(Cl)ccc23)cc1
 : -5%[15.4 µM] | 0.0% | 10% | 1.5 | 6% | 2.4 | 1.2%
> CSc1ccc(Cl)c(C(=O)OCC(=O)N2CCNC2=O)c1
 : ? | -9.4% | . | 0.3 | -3% | . | 0.1%
> C=CCn1c(COc2cccc(C)c2)nnc1SCC(=O)c1c(N)n(C)c(=O)n(C)c1=O
 : 30% | -0.4% | . | -1.6 | 13% | . | 0.7%
> Nc1nc(CN2CCN(Cc3ccccc3)CC2)nc(Nc2ccccc2)n1
 : 9% | 1.5% | -15% | -3.3 | 13% | 1.4 | 6.9%[38.3 µM]
> O=C(NCCc1ccncc1)Nc1ccccc1
 : 0% | -0.5% | 16% | 4.1 | 6% | 3.3 | 1.0%
> CCCNCc1cc(OC)c(OCc2ccccc2)cc1Br
 : -71%[inhibitor][15.4 µM] | . | 10% | -3.4 | 4% | -2.8 | 9.8%
> O=c1c2oc3ccccc3c2[nH]c(=S)n1-c1ccc(F)cc1
 : 83%[15.4 µM] | . | 79µM* | -5.2 | 8% | 2.7 | -0.7%
> CC(C)c1cccc(-c2csc(C(O)c3ccc(F)cc3)n2)c1 (configuration not stated)
 : . | 1.0% | . | ? | . | . | 12%
> O=C(c1ccccc1)N1CC(COc2ccccc2)OC(c2cccnc2)O1 (configuration not stated)
 : 3% | 0.8% | -17% | -4.3 | 9% | -2.6 | -1.7%
> Cc1nn(Cc2ccccc2Cl)c(Cl)c1/C=C/C(=O)OCC(=O)NC(N)=O
 : -4% | -4.8% | 2% | -1.7 | -3%[15.4 µM] | 2.5 | 1.8%
> O=C(NCc1ccccn1)Nc1ccc(Br)cc1
 : -1% | -0.3% | -3% | 1.7 | 13% | -6.1 | 2.1%
> O=C(Nc1nc(-c2cccs2)c(C(=O)C(F)(F)F)s1)c1ccccc1
 : 33% | 0.5% | 13% | -6.5 | ? | -0.2 | ?
> CC(=O)c1cccc(NC(=O)c2ccc(N(Cc3ccccc3)S(C)(=O)=O)cc2)c1
 : -37%[inhibitor] | -2.7% | 1% | -1.1 | -9% | 2.8 | 0.6%
> Cc1ccc(NC(=O)c2ccc(S(=O)(=O)N3CCCCC3)cc2)nc1
 : -42%[inhibitor] | -0.5% | . | -3.0 | -4% | . | 0.2%
> COc1ccc(C(CC(=O)Nc2ccc(C)cn2)N2Cc3ccccc3C2=O)cc1 (configuration not stated)
 : 22% | . | 12% | 0.6 | -11% | 5.7 | 0.4%
> COc1cccc(N(C(=O)CNC(=O)c2ccco2)C(C(=O)NC2CCCC2)c2ccncc2)c1 (configuration not stated)
 : -16% | 1.0% | 0% | -4.2 | 7% | 2.8 | 0.5%
> Cc1cccc(N(C)C(=O)c2cc3cc4ccc(C)cc4nc3o2)c1
 : -11% | -4.6% | 9% | -2.3 | -18% | -1.8 | 4.7%
> C#CCN(C[C@@H]1[C@@H](OC(=O)NCc2ccccc2F)[C@@H](OC(=O)NCc2ccccc2F)CN(C(=O)OC(C)C)N1C(=O)OC(C)C)S(=O)(=O)c1ccc(C)cc1
 : -44%[inhibitor] | -1.7% | . | -2.6 | . | . | 3.1%
> FC(F)(F)c1ccccc1Cc1c(C2CCCCC2)nc2c3ccccc3ccn12
 : . | 4.7% | . | -3.4 | . | . | ?
> Cc1ccc(-c2noc(CN(C(=O)C34CC5CC(CC(C5)C3)C4)C(C)C)n2)cc1
 : -39% | -0.2% | 7% | -3.2 | 13% | 1.6 | 8.5%[38.3 µM]
> O=C(Nc1nnc(SCC(=O)N2CCCCC2)s1)c1cccs1
 : -21% | 0.2% | -15% | -2.3 | -15% | 3.9 | 1.4%
> COc1ccc(N2CCN(C(=O)CCCCCn3c(=S)[nH]c4ccc(N5CCOCC5)cc4c3=O)CC2)cc1
 : -20% | 7.8% | . | 1.1 | . | . | 2.3%
> CCc1nnc(SCC(=O)Nc2ccccc2)nc1CC
 : 3% | -0.3% | 9% | -0.5 | 3% | 3.1 | 0.3%[38.3 µM]
> COC(=O)c1nnn(CC(=O)Nc2cccc(Cl)c2C)c1C(=O)OC
 : -18% | -2.2% | 17% | -1.6 | 5% | 2.5 | 0.0%
> CCC(C(=O)c1ccc2ncccc2c1)c1ccccc1 (configuration not stated)
 : -25% | 0.8% | -7% | -0.8 | -6% | 2.3 | 5.4%
> COc1cccc(/C=C/C(=O)N2CCN(c3ccccn3)CC2)c1
 : 6% | -9.0% | -11% | -3.0 | 4% | . | 1.6%
